D2 PAM: potentiates the human D2 dopamine receptor allosterically; DiscoveRx D2 beta-arrestin cells, luminescence, 90 min; 100% = 57 uM dopamine signal; potentiation, % (concentration not given with the values); 0.23% of 360,000 active; active = potentiation of 50% or more; inconclusive = 30% to 50%; inactive = 30% or less;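 further: compound concentration not given in the record; tested on top of an EC20 dose of dopamine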
Target sequence (P14416 whole entry, looked up): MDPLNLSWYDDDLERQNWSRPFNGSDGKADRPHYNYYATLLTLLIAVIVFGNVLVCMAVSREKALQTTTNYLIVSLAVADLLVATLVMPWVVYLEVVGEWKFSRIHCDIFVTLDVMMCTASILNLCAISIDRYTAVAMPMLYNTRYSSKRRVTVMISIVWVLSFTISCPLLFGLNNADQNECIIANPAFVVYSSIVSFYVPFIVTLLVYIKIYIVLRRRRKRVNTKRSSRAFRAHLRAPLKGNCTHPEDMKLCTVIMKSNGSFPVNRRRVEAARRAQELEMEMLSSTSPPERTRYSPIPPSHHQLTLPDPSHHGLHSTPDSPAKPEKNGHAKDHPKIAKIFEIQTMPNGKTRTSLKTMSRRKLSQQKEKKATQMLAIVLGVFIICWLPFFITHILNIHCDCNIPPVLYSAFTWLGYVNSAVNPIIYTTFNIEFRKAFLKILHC
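PathHunter D2 cells, attached overnight at 37 deg C, received compound in DMSO plus dopamine at EC20 (50 nM final) for 90 min at 37 deg C. Beta-arrestin recruitment was read as luminescence after 1 h with detection reagent at ambient temperature.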
PINK1 modulator: PINK1 expression modulation; PINK1 immunofluorescence, high-content cytometry, 24 h; Potency, µM (highest dose often 76.6 µM), for the others: at the highest dose activation (PINK1 increase), most hits filed as activators; 0.2% of 410,000 active; active = well fitted activation curve with a large enough effect; inconclusive = small, poorly fitted or top-dose-only effect; inactive = flat fitted curve, though single readings scatter; cell line not stated here;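 further: potency means the concentration at half of the fitted maximal effect; % of control where 0% means no effect; nearly all actives have a fitted effect of over 65% in size; a mitochondrial uncoupler was the plate control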
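Stable cell line, 250 cells/well, 12 h attachment; compounds pinned at 5 concentrations, 24 h; CCCP control. Fixed with nuclear dye, primary antibodies 12 h at 10 degrees C, secondary plus cell stain; laser-scanning cytometer read.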
TRPML1 agonist: agonists of human TRPML1 channel | Q9GZU1 | TRPML1-expressing cells, Ca2+ dye fluorescence, FDSS; host cell line not named in the record; reference of the full effect not given here | activation, % (test concentration not listed) | 0.12% of 410,000 active; in the data active = activation above about 50%; inconclusive = about 30% to 50%; inactive = below about 30%; further: 0% is about no effect; the text of the record puts the active cut at 80%
Target sequence (Q9GZU1 whole entry, looked up): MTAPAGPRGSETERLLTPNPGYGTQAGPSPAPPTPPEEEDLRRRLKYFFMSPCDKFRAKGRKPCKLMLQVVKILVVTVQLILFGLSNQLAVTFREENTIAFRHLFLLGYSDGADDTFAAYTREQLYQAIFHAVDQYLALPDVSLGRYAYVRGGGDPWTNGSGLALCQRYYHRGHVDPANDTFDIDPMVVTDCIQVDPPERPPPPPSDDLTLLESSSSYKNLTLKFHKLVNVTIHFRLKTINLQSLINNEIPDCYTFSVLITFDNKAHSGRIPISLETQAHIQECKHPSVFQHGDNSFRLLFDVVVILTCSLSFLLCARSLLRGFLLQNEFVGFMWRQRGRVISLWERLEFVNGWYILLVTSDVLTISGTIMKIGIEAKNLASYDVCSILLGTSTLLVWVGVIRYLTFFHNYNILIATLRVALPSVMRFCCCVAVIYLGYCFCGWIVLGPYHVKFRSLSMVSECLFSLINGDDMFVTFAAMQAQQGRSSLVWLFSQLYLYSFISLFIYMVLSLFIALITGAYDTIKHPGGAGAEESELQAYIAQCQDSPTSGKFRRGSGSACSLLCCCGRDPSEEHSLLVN
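Tetracycline-induced TRPML1-DL cells are seeded and incubated overnight before loading with a no-wash Ca2+ dye and quencher. Agonist activity is taken from the 110 s fluorescence read following compound pin-transfer on an FDSS, before EC80 54-4 challenge.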
D2 ag: activates the human D2 dopamine receptor; P14416; DiscoveRx PathHunter D2 beta-arrestin, luminescence, 90 min; 100% = 57 uM dopamine signal; activation, % (test concentration not listed); 0.084% of 360,000 active; in the data active = activation above about 40%; inconclusive = about 15% to 40%; inactive = below about 15%; further: compound concentration not given in the record; the text of the record calls up to 30% inactive
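DiscoveRx PathHunter D2 beta-arrestin cells (2,100/well) attached overnight, then compound-stimulated 90 min at 37 C in HBSS/10 mM HEPES/0.1% Tween-20 buffer; beta-galactosidase complementation read by luminescence after 1 h at ambient temperature. Dopamine 57 uM final (EC100) as control.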
TRPML1 blocker: inhibitors of human TRPML1 channel. activity change, negative = inhibition, % (concentration not given with the values). Q9GZU1. 0.02% of 390,000 active. TRPML1-inducible cells, Ca2+ dye fluorescence, FDSS; hits give low values; inhibition of EC80 agonist-evoked calcium signal; in the data active means activity change below about -50%; inconclusive means about -30% to -50%; inactive means above about -30%;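 further: stimulus is agonist 54-4 at its EC80 concentration; on the % scale 0 is the no-effect control and ±100 the full control effect; compound concentration not given in the record; the text of the record puts the active cut at -80%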
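TRPML1-DL cells, Tet-induced overnight (~16 h, 37 °C) at 1,500 cells/well, were loaded with Ca8 no-wash dye plus quencher for 45-90 min at room temperature. Compounds were pinned during FDSS kinetic reading; agonist 54-4 at EC80 (4 uM final) then added.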
Six1-Eya2 blk: blocks human Six1 binding to Eya2; AlphaScreen GST-Six1/His-Eya2 binding, biochemical; hits give low values; control for the full effect not named in the record; AID 651725; activity change, % (test concentration not listed); 0.56% of 360,000 active; Q15475+O00167; in the data active = activity change below about -65%; inconclusive = about -30% to -65%; inactive = above about -30%; further: on the % scale 0 is the no-effect control and ±100 the full control effect; compound concentration not given in the record
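AlphaScreen luminescence read after one hour at 37 °C in darkness. Pin-transferred compounds met GST-Six1 and His-Eya2 protein (5X stock 250 nM/500 nM) plus glutathione donor and Ni-chelate acceptor beads (5X, 50 ug/mL).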
* marks the source's active call; other numbers are inactive results; ? = inconclusive; . = not tested or not shown; & = joins results of further samples; [ ] = another dose, or the depositor's remark. Compounds were not picked by outcome; 1% or so of the library scored in one or more.

SMILES | D2 PAM | PINK1 modulator | TRPML1 agonist | D2 ag | TRPML1 blocker | Six1-Eya2 blk
COC(=O)c1ccccc1C(=O)c1ccc2c(c1)NC(=O)CO2 | 0 | -0.2% | 0.1 | -2.0 | -9 | 5
O=C(N[C@@H](Cc1ccc(O)cc1)C(=O)O)c1ccncc1 | -3 | -0.7% | -0.2 | -4.6 | 9 | 2
COc1ccc(CCNC(=O)Cn2nnc(C(=O)Nc3ccc(Br)cc3)c2N)cc1OC | -2 | 1.0% | -0.7 | 13 | -2 | -12
CCOc1ccc(Nc2oc(-c3ccc(Cl)cc3)nc2C#N)cc1 | 26 | 3.9% | 0.5 | 4.1 | -5 | -1
CCOC(=O)c1cnc(SCC(=O)Nc2ccc(NC(=O)CC)c(OC)c2)nc1N | -13 | -4.0% | -0.8 | -0.4 | -11 | 5
COc1ccc(C2CC(c3ccc(Br)cc3)=NN2C(=S)Nc2ccccc2)cc1 (configuration not stated) | -9 | 1.4% | 1.4 | 3.9 | 28 | -19
O=C(NCc1cn2ccsc2n1)c1cccs1 | -3 | 0.3% | -0.4 | -1.0 | 3 | 8
Cc1nnc(SCc2cc(=O)oc3ccc4ccccc4c23)n1Cc1ccccc1 | -7 | -2.4% | -0.5 | 0.3 | 1 | -11
CC(C)CN1CCC(=O)N([C@H](CSc2ccccc2)Cc2ccccc2)CC1 | -13 | 8.1% | 1.0&-0.4 | -3.9 | 19 | -6
COc1ccccc1C(=O)N=C1SC2CS(=O)(=O)CC2N1c1ccccc1 (configuration not stated) | 3 | 1.3% | 0.7 | -0.6 | 7 | 27
CCc1nc2ccc(C(=O)Nc3cccc(NS(C)(=O)=O)c3)cn2c1N(C)C(=O)Cc1ccccc1 | -6 | 0.9% | -0.3 | -2.3 | . | 4
COC(=O)c1ccc(N2CCCCC2)c(N)c1 | -9 | 1.9% | -0.5 | -1.1 | -12 | -2
CN(C)c1ccc(CNC(=O)C2CCN(c3nnc(-n4cccc4)s3)CC2)cc1 | . | -2.6% | 1.8 | . | -12 | .
Cc1csc2ncc(C(=O)NCCC(c3ccccc3)c3ccccc3)c(=O)n12 | 1 | 1.1% | 2.0 | -1.6 | -20 | 12
Cn1c(=O)c2c(nc(CO)n2C)n(C)c1=O | -1 | -0.6% | 1.1 | -2.0 | -14 | -2
COc1ccc(CNC(=O)c2ccc(-c3ccc(F)c(F)c3)c3ccoc23)cc1OC | 5 | 3.3% | 0.2 | -3.2 | . | -17
CCCn1c(N)c(C(=O)CSc2ncn[nH]2)c(=O)n(C)c1=O | 5 | 0.6% | -0.5 | -5.0 | -7 | -12
Cc1cnc(NC(=O)CSc2nc3ccccc3s2)s1 | -3 | 0.3% | 0.2 | -0.5 | 10 | -7
CC(=O)c1ccc(S(=O)(=O)Nc2ccc(C(=O)NCCCn3ccnc3)cc2)cc1 | -5 | -0.9% | 0.2 | -2.3 | 6 | 0
CCCCOC(=O)c1cccnc1 | -1 | 2.4% | -0.5 | 0.8 | 0 | 2
CC(C(=O)N1CCCCC1)n1ncn2cccc2c1=O (configuration not stated) | 7 | -0.2% | 0.3 | -0.5 | 18 | 9
C[C@H](CO)N1C[C@H](C)[C@@H](CN(C)S(=O)(=O)c2cn(C)cn2)Oc2c(NS(=O)(=O)c3ccc(F)cc3)cccc2C1=O | -2 | 0.3% | -0.2 | -4.6 | -10 | 6
O=C1CCC/C(=N\NC(=O)COc2ccc(Cl)cc2)C1 | -5 | 0.1% | 0.4 | -1.6 | 28 | -1
COc1ccc(-c2c(C)c3ccc(O)c(CN4CCCCC4)c3oc2=O)cc1OC | . | -0.5% | -0.7 | . | -7 | .

Sorted by value in D2 ag (rising): 3 of the compounds above
structure | D2 PAM | PINK1 modulator | D2 ag | TRPML1 blocker | Six1-Eya2 blk
COC(=O)c1ccccc1C(=O)c1ccc2c(c1)NC(=O)CO2 | 0 | -0.2% | -2.0 | -9 | 5
COc1ccccc1C(=O)N=C1SC2CS(=O)(=O)CC2N1c1ccccc1 (configuration not stated) | 3 | 1.3% | -0.6 | 7 | 27
Cc1cnc(NC(=O)CSc2nc3ccccc3s2)s1 | -3 | 0.3% | -0.5 | 10 | -7

Other entries
SMILES | D2 PAM | PINK1 modulator | TRPML1 agonist | D2 ag | TRPML1 blocker | Six1-Eya2 blk
O=C(NNC1=NCCC1)C1CC1 | 0 | -0.9% | 0.2 | 6.4 | -2 | -3
CC(C)C1=NN(C(=O)c2cccnc2)C(O)(C(F)(F)F)C1 (configuration not stated) | 7 | 1.3%[38.3 µM] | 0.2 | -0.3 | 4 | 3
COCCNC(=O)c1cc(C)ccc1C | -1 | 0.5% | -1.1 | -3.0 | -5 | 8
Cn1c(SCC(=O)NC2CCCCCC2)nnc1-c1ccco1 | -5 | 0.0% | -0.6 | -3.5 | 10 | 0
CC(=O)O[C@]1(C(C)=O)CC[C@H]2[C@@H]3C=C(Cl)C4=CC(=O)CC[C@]4(C)[C@H]3CC[C@@]21C | -3 | 0.9% | 0.2 | -3.9 | 8 | -5
O=C(Nc1ccc(NC(=O)c2cccs2)c(Cl)c1)c1cccs1 | -2 | 1.8% | 0.3 | 1.2 | -3 | 2
COc1ccc(S(=O)(=O)N(CC(=O)N/N=C/c2cccs2)c2cc(C)cc(C)c2)cc1OC | -1 | ? | 2.0 | -0.3 | -1 | -9
CC(=O)c1ccc(N2C(=NC(=O)CCC3CCCC3)SC3CS(=O)(=O)CC32)cc1 (configuration not stated) | -3 | -0.7% | 3.0 | 0.5 | -11 | 0
CCOc1ccc(OCC)c(S(=O)(=O)N2CCC(C)CC2)c1 | -6 | 3.4%[38.3 µM] | 1.2 | -1.8 | 50 | 7
Cc1ccccc1C(=O)N(Cc1nc2ccccc2c(=O)[nH]1)C1CCCC1 | 2 | 0.3% | 0.7 | -6.4 | 12 | 6
CC(C)(C)OC(=O)N1CCC(c2c(C(=O)N3CCN(C(=O)c4ccco4)CC3)cnn2-c2cccc(F)c2)CC1 | . | -0.9% | 0.0 | . | 1 | .
COc1ccc(OCCSc2nc3ccccc3n2CC(=O)N2CCOCC2)cc1 | . | -1.3% | -0.2 | . | 14 | .

Complete entries as entered above.
`CC(=O)c1ccc(N2C(=NC(=O)CCC3CCCC3)SC3CS(=O)(=O)CC32)cc1` (configuration not stated) is listed with D2 PAM = -3; PINK1 modulator = -0.7%; TRPML1 agonist = 3.0; D2 ag = 0.5; TRPML1 blocker = -11; Six1-Eya2 blk = 0
`COc1ccc(OCCSc2nc3ccccc3n2CC(=O)N2CCOCC2)cc1` is listed with D2 PAM = .; PINK1 modulator = -1.3%; TRPML1 agonist = -0.2; D2 ag = .; TRPML1 blocker = 14; Six1-Eya2 blk = .
`CC(C)C1=NN(C(=O)c2cccnc2)C(O)(C(F)(F)F)C1` (configuration not stated) is listed with D2 PAM = 7; PINK1 modulator = 1.3%[38.3 µM]; TRPML1 agonist = 0.2; D2 ag = -0.3; TRPML1 blocker = 4; Six1-Eya2 blk = 3

More compounds follow.
SMILES | D2 PAM | PINK1 modulator | TRPML1 agonist | D2 ag | TRPML1 blocker | Six1-Eya2 blk
CCOC(=O)CNC(=O)C1(/C=C/c2ccccc2)CC(=O)N1c1ccc(OC)cc1 (configuration not stated) | -4 | 2.5% | -0.5 | -5.5 | 5 | -11
CCC1CCCCN1CC(=O)Nc1cc(OC)c(OC)cc1C#N (configuration not stated) | 1 | 7.4% | -0.8 | -8.1 | 5 | 13
S=c1nc[nH]c2c1[nH]c1ccccc12 | -23 | -0.5% | -0.1 | -1.9 | 6 | 3
S=C(Nc1ccc(Cl)cc1)N1CCOCC1 | 8 | -2.6% | 3.2 | 0.7 | -9 | 2
Fc1ccccc1N1CCN(c2ncc3c(n2)CCN(Cc2cc(Br)cs2)C3)CC1 | . | 0.3% | -0.2 | . | -8 | .
O=C1CCCC(O)=C1Sc1ccccc1C(=O)O | -7 | 0.7% | 0.0 | 0.5 | -11 | -14
CN(C)S(=O)(=O)c1cccc(C(=O)Nc2cc(Cl)ccc2O)c1 | 22 | 6.9% | -0.9 | 5.4 | -5 | ?
COc1ccc(NC(=O)CSc2nnc(Cn3c(=O)sc4ccccc43)n2C)c(OC)c1 | -1 | 0.6% | 0.3 | -3.1 | 37 | 7
Cc1ccc2c(c1)C(c1ccccc1)N(C(=O)c1c(F)cccc1Cl)CC(=O)N2 (configuration not stated) | -10 | -2.3% | 2.4 | 2.8 | -7 | -18
COc1cc(C)nn1-c1ccc(Cl)cc1 | -6 | 1.1% | -1.3 | -4.1 | 21 | 1
Cc1ccccc1Nc1c([N+](=O)[O-])ccc2nonc12 | 15 | 2.2% | 5.3 | 11 | -7 | -23
CC(C)(C)C(=O)Nc1cccc(-c2ncon2)c1 | -3 | -1.1% | 0.4 | -1.2 | 8 | -4
COC(=O)c1sccc1NC(=O)c1ccc(OC)c(OC)c1 | -10 | -0.4% | 1.8 | -2.0 | 4 | 5
Nc1nc2ccccc2cc1-c1cccs1 | -10 | 0.4% | 1.7 | 8.0 | -17 | 12
Cc1ccc(CN2CCN(/N=C/c3ccc(Cl)c([N+](=O)[O-])c3)CC2)cc1 | -11 | 5.2% | 0.0 | -0.6 | -7 | ?
O=C(COc1ccc2c(C(F)(F)F)cc(=O)oc2c1)Nc1ccc(N2CCOCC2)cc1 | 3 | -1.0% | 5.2 | -1.8 | -7 | 2
N#CC1(NC(=O)COC(=O)c2cc([N+](=O)[O-])ccc2N2CCOCC2)CCCCC1 | -7 | -1.9% | -0.8 | -5.1 | 3 | -4
CC(=O)Nc1ccc(NC(=O)C(C)OC(=O)CCC2CCCCC2)cc1 (configuration not stated) | 13 | 4.3% | 2.1 | -4.3 | -2 | 0
O=C(OCc1cn([C@@H]2C[C@H](c3ccc(Cl)cc3)N(C(=O)C3CCCCC3)C[C@H]2O)nn1)c1ccccc1 | -1 | 0.5% | 1.1 | 0.8 | 12 | -7
CCCCN(CC)CCNC(=O)c1c(C)oc2ncnc(N3CCOCC3)c12 | . | -1.1% | 0.1 | . | 18 | .
O=C(CN(Cc1cccs1)C(=O)CN1C(=O)COc2ccccc21)NCc1ccco1 | -7 | -0.8%[38.3 µM] | 1.4 | -4.0 | -13 | -1
N=c1c(S(=O)(=O)c2ccccc2)cc2c(=O)n3ccccc3nc2n1C1CCCC1 | 0 | ? | 2.9 | 0.7 | 4 | -14
O=C(COC(=O)C1CCN(c2ccc(C(F)(F)F)cn2)CC1)NCc1ccc(Cl)cc1Cl | -3 | -1.8% | 1.1 | -1.2 | -12 | 10
CCc1[nH]c(C(=O)O)c(C)c1C(=O)OC | -3 | -1.0% | 0.0 | -1.2 | -9 | -5
COc1ccc(Cc2cc(NCc3ccccc3)c3ncn(C(C)C)c3c2)cc1 | -24 | 13% | 1.8 | -3.2 | 42 | ?
CCc1ccc2c(c1)cc(CN(C(=S)Nc1ccccc1Cl)C1CC1)c1nnnn12 | -3 | 13µM* | 0.3 | -0.5 | -7 | 1

Screening results from PubChem.
